Screening results deposited in PubChem by National Center for Advancing Translational Sciences (NCATS).
Lassa entry inh: qHTS for Inhibitors of binding or entry into cells for Lassa Virus | Lassa virus pseudotype entry inhibition, cell reporter; control for the full effect not named in the record | AID 540256, 2011 | 1.2% of 300,000 active | Potency, µM (highest dose often 37.9 µM), for the others: at the top dose activity change, negative = inhibition, usual class: inhibitors; active means well fitted inhibition curve with a large enough effect; inconclusive means small, poorly fitted or top-dose-only effect, or effect the other way; inactive means flat fitted curve, though single readings scatter; tested in HEK293 cells; also: % is scaled to controls: 0 for no effect and ±100 for the full control effect; nearly all actives have a fitted effect of over 50% in size; luciferase read-out
Cruzain inh Det: qHTS Assay for Promiscuous and Specific Inhibitors of Cruzain (with detergent) | Cruzipain (Trypanosoma cruzi), P25779 | purified cruzain, Z-FR-AMC fluorescence, 0.01% Triton | Potency, µM, without a hit: max response, negative = inhibition, actives largely listed as inhibitors | 0.43% of 200,000 active | AID 1478, 2009; active = well fitted curve in the direction sought with a large enough effect; inconclusive = small, poorly fitted or top-dose-only effect, or another doubt; inactive = no such curve, though single readings can be large; an effect the other way counts as inactive or inconclusive;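 also: plate controls were neutral wells for no effect and buffer without enzyme for full effect; nearly all actives have a fitted effect of over 40% in size; top concentration of the series not given in the record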
Target sequence (P25779 123-467 limits assumed): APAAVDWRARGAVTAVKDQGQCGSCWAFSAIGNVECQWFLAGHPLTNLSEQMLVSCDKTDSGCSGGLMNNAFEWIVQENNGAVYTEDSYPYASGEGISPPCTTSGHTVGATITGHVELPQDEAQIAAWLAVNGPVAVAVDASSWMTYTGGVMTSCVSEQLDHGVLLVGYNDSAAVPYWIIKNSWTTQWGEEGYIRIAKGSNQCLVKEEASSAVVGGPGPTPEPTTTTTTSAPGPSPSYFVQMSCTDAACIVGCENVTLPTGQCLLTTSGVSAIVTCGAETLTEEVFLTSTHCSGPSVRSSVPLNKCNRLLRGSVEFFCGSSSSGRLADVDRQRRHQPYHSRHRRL
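Cysteine protease activity tested under reducing, mildly acidic conditions (100 mM sodium acetate pH 5.5, 5 mM DTT) plus 0.01% Triton X-100. Cruzain 1.5 nM; substrate Z-FR-AMC 2 uM; 15 min compound preincubation at room temperature.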
Marburg entry inh: qHTS for inhibitors of binding or entry into cells for Marburg Virus | Marburg virus pseudotyped entry inhibition, cell reporter; control for the full effect not named in the record; about a third of the inactives were read at about 46 µM | Potency, µM (top dose mostly 37.8 µM), for inactives: at the top dose activity change, negative = inhibition, most hits filed as inhibitors | 1.8% of 300,000 active; active = well fitted inhibition curve with a large enough effect; inconclusive = small, poorly fitted or top-dose-only effect, or effect the other way; inactive = flat fitted curve, though single readings scatter; tested in HEK293 cells; about a fifth of its hits are not listed in these tables; also: % is scaled to controls: 0 for no effect and ±100 for the full control effect; luciferase read-out
StopGo reporter: High Throughput Screening for Foot and Mouth Disease Virus Antivirals. human cells with a luciferase reporter of 2A StopGo recoding; control for the full effect not named in the record. Potency, µM (top dose mostly 57.9 µM), inactives show top-dose signal change, negative = less light. 1.2% of 410,000 active. AID 1159524, 2015; active = well fitted falling curve with a large enough effect; inconclusive = small, poorly fitted or top-dose-only effect; inactive = no such curve, though single readings can be large or run the other way; tested in HEK293T cells; also: % is scaled to controls: 0 for no effect and ±100 for the full control effect; nearly all actives have a fitted effect of over 45% in size; luciferase light after 4 h
RE007 growth inh: qHTS Assay for Inhibitors of the HIV-1 protein Vpr | S. pombe RE007 Vpr strain, BacTiter-Glo ATP luminescence, 24 h; control for the full effect not named in the record | Potency, µM (highest dose often 92.2 µM), for inactives: top-dose activity change, negative = less growth | 0.21% of 360,000 active | AID 651644, 2012; active = well fitted falling curve with a large enough effect; inconclusive = small, poorly fitted or top-dose-only effect; inactive = no such curve, though single readings can be large or run the other way;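 also: % is scaled to controls: 0 for no effect and ±100 for the full control effect; nearly all actives have a fitted effect of over 50% in size; the assay follows cell death caused by Vpr and the record does not say whether a fall means rescue or toxicity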
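Fission yeast strain RE007, carrying one chromosomally integrated HIV-1 vpr copy, was seeded at OD 0.01 in PMG+AL medium with 23 nL pinned compound. After 24 h at 30 °C and 99% humidity, viability was read by BacTiter-Glo luminescence.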
Cruzain inh noDet: qHTS Assay for Promiscuous and Specific Inhibitors of Cruzain (without detergent); Cruzipain (Trypanosoma cruzi), P25779; Potency, µM, for inactives: max response, negative = inhibition, most hits filed as inhibitors; purified cruzain, Z-FR-AMC fluorescence, no detergent; 2.3% of 200,000 active; active = well fitted curve in the direction sought with a large enough effect; inconclusive = small, poorly fitted or top-dose-only effect, or another doubt; inactive = no such curve, though single readings can be large; an effect the other way counts as inactive or inconclusive;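 also: plate controls were enzyme without inhibitor for no effect and buffer without enzyme for full effect; nearly all actives have a fitted effect of over 40% in size; top concentration of the series not given in the record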
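Detergent-free condition (0.00005% Triton X-100) in acetate buffer pH 5.5 with DTT. 1.5 nM enzyme and compound were pre-mixed 15 min, then 2 uM Z-FR-AMC substrate added; reaction progress from fluorescence change between first and third reads (60 s).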
SARS PLpro yeast: qHTS of Yeast-based Assay for SARS-CoV PLP | AID 485353, 2010 | Potency, µM (top dose mostly 32.9 µM), inactives show at the top dose activity, positive = growth rescue | S. cerevisiae expressing SARS-CoV PLpro, growth rescue; control for the full effect not named in the record | 0.19% of 330,000 active; also: 0% is about no effect; nearly all actives have a fitted effect of over 55% in size; growth read by luminescence after 48 h
NS1 function inh: qHTS Assay for Inhibitors of Influenza NS1 Protein Function. Potency, µM (titrated, usually from 46.1 µM), inactives show at the top dose activity, positive = more growth. S. cerevisiae slowed by influenza A NS1, growth recovery by OD600. 0.4% of 270,000 active. AID 2326, 2010; also: actives are rising curves; nearly all actives have a fitted effect of over 50% in size
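In this qHTS, NS1 from influenza A is expressed in budding yeast, where it slows growth. Cells are switched from glucose to 2% galactose medium (pH 6.0, -URA), treated with compound, and growth recovery is read at OD600.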
Starred values were filed as active, the others as inactive; ? = inconclusive; nt = no result given; & = joins results of further samples; [ ] = dose if it differs, or a comment. Unless noted, calls follow the shape of the dose curve; as a rule, active means well fitted rising curve with a large enough effect; inconclusive means small, poorly fitted or top-dose-only effect; inactive means no such curve, though single readings can be large or run the other way. Potency is read from the fitted curve at half-maximal effect.

SMILES	Lassa entry inh	Cruzain inh Det	Marburg entry inh	StopGo reporter	RE007 growth inh	Cruzain inh noDet	SARS PLpro yeast	NS1 function inh
COc1ccc(NC(=O)c2ccc(NC3=NC4CS(=O)(=O)CC4S3)cc2)cc1 (stereo not given)	nt	nt	nt	13%	-5%	nt	4%	-3%
Cc1nn(C)c(C)c1C1C(C#N)=C(N)OC2=C1C(=O)CCC2 (stereo not given)	?	-0.3%	14%	8%	2%	-7%	-2%	19%
CC(=O)C1=C(c2ccc(Cl)c(Cl)c2)N(C(C)=O)n2cnnc2S1	?	?	nt	?	nt	-27%	nt	nt
COc1ccc(CCNC(=O)c2cc(=O)[nH]c3ccc(Br)cc23)cc1OC	22%[46.1 µM]	2.6%	-16%[46.1 µM]	-18%	10%	1%	6%	-3%
COc1ccc(NC(=O)Nc2ccon2)c(OC)c1	nt	nt	nt	33%[activator]	-7%	nt	-1%	2%
CC(C)C(=O)Nc1cccc(S(=O)(=O)c2cccc(NC(=O)C(C)C)c2)c1	0.63µM*	-3.8%	?	0%	15%	6%	-8%	-1%
Cc1cccc(OCC(=O)Nc2ccccc2N2CCCCC2)c1	-4%	-12%	-26%	?	14%	2%	-9%	-73%
COc1ccc(C2=NC(C)(C)N(CC(=O)Nc3cc(OC)cc(OC)c3)C2=O)cc1	10%[46.1 µM]	-2.4%	-12%[46.1 µM]	10%	nt	?	nt	nt
COCCNC(=O)CN(C(=O)CCC(=O)Nc1ccccn1)c1ccccc1OC	nt	nt	nt	-2%	10%	nt	3%	23%
O=C1C(Cl)=C(Nc2ccccc2)C(=O)c2ccccc21	?	-2.5%	?	40µM*	6%	-13%	-18%	1%
Cn1c(=O)c2c(nc(NCCCO)n2Cc2cccc(C(F)(F)F)c2)n(C)c1=O	-28%	1.7%	-9%	-8%	1%	6%	-2%	1%
Cc1cccc(/C=N/NC(=O)c2cccc(NC(=O)c3ccccc3)c2)n1	2%	nt	17%[46.1 µM]	8%	11%	nt	0%	3%
CN(CCCN1CCOCC1)C(=O)c1cc(COc2c(F)cccc2F)on1	-1%	nt	16%	-3%	-11%	nt	2%	-7%
Cc1ccc(Cn2cccc2C2=NC(C)CO2)cc1 (stereo not given)	19%	-2.1%	17%	16%	19%	-1%	7%	-6%
CCn1c(SCC(N)=O)nnc1-c1ccc2[nH]c(C)c(C)c2c1	4%	2.0%	-1%	30%	11%	-4%	1%	4%[9.22 µM]
CN(C)c1ccc(NC2=C(Cl)C(=O)c3ccccc3C2=O)cc1	?	-11%	?	?	?	-9%	0%	15%
CSc1cccc(NS(=O)(=O)c2ccc3[nH]cc(C(=O)N4CCCCCC4)c(=O)c3c2)c1	-6%[46.1 µM]	-5.4%	3%[46.1 µM]	9%	nt	-9%	nt	nt
Cc1cc(NS(=O)(=O)c2ccccc2)ccc1NS(=O)(=O)c1ccccc1	-26%[46.1 µM]	nt	?	7%	-21%	nt	nt	nt
CC(=O)N1c2ccc(S(=O)(=O)NCCC(=O)NCCc3ccc(Cl)cc3)cc2CC1C (stereo not given)	nt	nt	nt	-26%	-4%	nt	-7%	-3%
NC[C@](O)(CS(=O)(=O)O)c1ccc(Cl)cc1	nt	-1.1%	-5%&-5%	0%	nt	2%	nt	nt
Cc1ccc(OCC(=O)N/N=C/c2cccnc2)cc1C	13%	nt	-3%[46.1 µM]	-8%	10%	nt	-6%	-1%
CCN(CC)S(=O)(=O)c1ccc(C(=O)NCCSc2c(-c3ccc(F)cc3)[nH]c3ccccc23)cc1	-29%[46.1 µM]	1.8%	?	0%	nt	-62%	nt	nt
S=C(Nc1cccc(Br)c1)N1CCn2cccc2C1c1cccnc1 (stereo not given)	7.9µM*	nt	?	-24%	-13%	nt	-4%	nt
Cc1nc2c3ccccc3n(CCN3CCCCC3)c2s1	nt	4.4%	-6%	nt	nt	-2%	4%	0%
Cc1ccc(-c2noc(CN(C(=O)C34CC5CC(CC(C5)C3)C4)C(C)C)n2)cc1	1%	4.6%	-19%	-14%	11%	2%	-4%	-15%
Remaining list, next part
SMILES	Lassa entry inh	Cruzain inh Det	Marburg entry inh	StopGo reporter	RE007 growth inh	Cruzain inh noDet	SARS PLpro yeast	NS1 function inh
O=C(Nc1nnc(SCC(=O)N2CCCCC2)s1)c1cccs1	2%	-6.9%	-10%	22%	-11%	-5%	3%	-3%
CCc1nnc(SCC(=O)Nc2ccccc2)nc1CC	-1%	2.6%	6%	-23%	6%	7%	-14%	-17%
CCC(C(=O)c1ccc2ncccc2c1)c1ccccc1 (stereo not given)	-29%	-9.9%	-12%	-25%	0%	3%	14%	-15%
COC(=O)c1nnn(CC(=O)Nc2cccc(Cl)c2C)c1C(=O)OC	?	5.3%	-6%	12%	8%	-4%	5%	10%
Cn1c(=O)n(C)c2cc(CNCc3ccccc3)ccc21	0%[46.1 µM]	1.3%	-1%[46.1 µM]	-11%	nt	4%	nt	nt
C[C@@H]1C(c2ccc(F)cc2)=NN(c2ccc(Br)cc2)[C@H]1C(=O)N1CCOC1=O	nt	-2.6%	nt	0%	12%	22µM*	-62%	nt
COc1cccc(/C=C/C(=O)N2CCN(c3ccccn3)CC2)c1	nt	nt	nt	24%	-17%	nt	-3%	-17%
CCC(=O)c1ccc2c(c1)N(CCCN(C)C)c1ccccc1S2	?	-3.7%	21µM*	-16%	-5%[18.4 µM]	5%	nt	-18%
COc1ccc(C(CC(=O)Nc2ccc(C)cn2)N2Cc3ccccc3C2=O)cc1 (stereo not given)	0%[46.1 µM]	nt	?	-1%	6%	nt	0%	-7%
CC(=O)c1cccc(NC(=O)c2ccc(N(Cc3ccccc3)S(C)(=O)=O)cc2)c1	1%	-9.1%	-23%	32µM*	-5%	-2%	9%	10%
COc1cccc(N(C(=O)CNC(=O)c2ccco2)C(C(=O)NC2CCCC2)c2ccncc2)c1 (stereo not given)	-2%	4.4%	-4%	2%	-21%	13%	3%	-8%
Cc1cccc(N(C)C(=O)c2cc3cc4ccc(C)cc4nc3o2)c1	?	-10%	?	35%[activator]	-13%	-15%	-1%	-55%
Cc1ccc2c(c1)-c1onc(C(=O)N3CCN(c4cc(Cl)ccc4C)CC3)c1CO2	28%[46.1 µM]	-1.7%	nt	-21%	nt	12%	nt	nt
O=c1c2oc3ccccc3c2[nH]c(=S)n1-c1ccc(F)cc1	4%	nt	-1%	0%	2%	nt	4%	nt
CCCNCc1cc(OC)c(OCc2ccccc2)cc1Br	-18%[46.1 µM]	nt	11µM*	3%	1%	nt	0%	3%
O=C(c1ccccc1)N1CC(COc2ccccc2)OC(c2cccnc2)O1 (stereo not given)	29%	1.9%	?	15%	3%	15%	-16%	-83%
Cc1nn(Cc2ccccc2Cl)c(Cl)c1/C=C/C(=O)OCC(=O)NC(N)=O	-14%	3.4%	?	-7%	-15%	?	7%	-8%
O=C(NCc1ccccn1)Nc1ccc(Br)cc1	nt	nt	nt	19%	-14%	nt	24%	-2%
O=C(Nc1nc(-c2cccs2)c(C(=O)C(F)(F)F)s1)c1ccccc1	-20%	-8.5%	-10%	?	-2%	-4%	4%	-9%
Cc1ccc(CNC(=O)N2CCC(CN3CCC(C)CC3)CC2)cc1	3%[46.1 µM]	1.0%	nt	-2%	nt	21%	nt	nt
Nc1nc(CN2CCN(Cc3ccccc3)CC2)nc(Nc2ccccc2)n1	-9%	-0.1%	?	-23%	2%	-10%	-5%	-4%
O=C(NCCc1ccncc1)Nc1ccccc1	13%	4.6%	?	-9%	2%	-9%	-2%	-6%
C=CCO/N=C(/C)c1c(O)c(CC)c(-c2ccccc2)n(-c2ccccc2)c1=O	-7%	-11%	1%	-17%	13%	-7%	-57%	5%
Cc1ccc(Cl)cc1Nc1nc(-c2sc(NC(=O)c3ccccc3)nc2C)cs1	nt	3.7%	-5%	nt	nt	6.3µM*	3%	21%
CNC(=O)CN(c1ccc(Oc2ccccc2)cc1)S(=O)(=O)c1ccc(C)cc1	7.1µM*	nt	-15%	-4%	?	nt	-8%	-12%
(cont.)
SMILES	Lassa entry inh	Cruzain inh Det	Marburg entry inh	StopGo reporter	RE007 growth inh	Cruzain inh noDet	SARS PLpro yeast	NS1 function inh
CCC(C(=O)NC1CCCC1)N(C(=O)c1snc(C(N)=O)c1N)c1ccc(C)cc1C (stereo not given)	?	nt	?	-18%	-13%	nt	2%	5%
CC1(c2ccccc2)NC(=S)N2C1NC(=S)N2c1ccccc1 (stereo not given)	12%	-10%	7%	105%[activator]	2%	3%	-6%	1%
Cc1[nH]nc(Nc2ccccc2)c1[N+](=O)[O-]	?	-4.3%	13%	24%	4%	9%	0%	-21%
CCOC(=O)c1cc(NC(=O)COc2ccc([N+](=O)[O-])cc2)cc(C(=O)OCC)c1	?	-1.2%	?	-17%	36%	2%	16%	8%
CCOc1ccccc1NC(=O)C(=O)c1cc(C)n(-c2cccc(C)c2C)c1C	0%[46.1 µM]	-1.4%	?	-7%	nt	-8%	nt	nt
CC(C)[C@H](NC(=O)N1c2ccccc2NC(=O)[C@@H]1C(C)C)C(=O)N[C@H](C(=O)O)c1ccccc1	nt	nt	nt	-22%	0%	nt	15%	-5%
COC(=O)CSc1nc2sc(C)c(C)c2c(=O)n1C	-1%	-3.6%	6%	-1%	1%	-2%	-2%	-60%
COc1ccc(CNc2ncnc3cc(Cl)ccc23)cc1	?	nt	?	?	29%	nt	-1%	-1%
COc1ccccc1-c1c(C)c(C)nc(N)c1C#N	17%	25%	17%	-1%	5%	5%	5%	-2%
COc1ccc(Br)cc1Cn1nnc(C(=O)Nc2ccc3c(c2)OCCO3)c1N	nt	nt	nt	-15%	3%	nt	1%	-7%
O=C(CNC(=O)c1cccs1)N/N=C/c1c[nH]c2ccccc12	5%	nt	-3%	7%	2%	nt	-3%	-3%
CC(=O)Oc1c2occc2cc2ccc(=O)oc12	?	-2.0%	1%	-3%	5%	2%	-3%	-6%
C=CCSC1=NN2CCS(=O)(=O)N=C2S1	-10%[46.1 µM]	nt	?	8%	6%	nt	5%	nt
Cc1oc(-c2ccccc2F)nc1CS(=O)(=O)CC(=O)NCCCN1CCN(C)CC1	nt	nt	nt	-12%	9%	nt	5%	13%
